High-throughput results from PubChem BioAssay.
VACV Venus inh = vaccinia inhibition (Venus reporter) | Potency, µM (titrated, usually from 36.5 µM), inactives show at the highest dose activity change, negative = inhibition, actives largely listed as inhibitors | Vaccinia virus Venus reporter expression, fluorescence | actives 0.46% (n = 330,000) | AID 720580; active means well fitted inhibition curve with a large enough effect; inconclusive means small, poorly fitted or top-dose-only effect; inactive means no such curve, though single readings can be large or run the other way; tested in A549 cells; note: nearly all actives have a fitted effect of over 30% in size; inactives centre near -10
VACV mCherry inh = inhibitors of vaccinia virus infection (mCherry reporter signal); Vaccinia virus mCherry reporter infection, fluorescence; about a quarter of the inactives have no number; Potency, µM (doses to about 36.5 µM), without a hit: top-dose activity change, negative = inhibition, usual class: inhibitors; actives 0.63% (n = 310,000); active = well fitted inhibition curve with a large enough effect; inconclusive = small, poorly fitted or top-dose-only effect; inactive = no such curve, though single readings can be large or run the other way; tested in A549 cells; note: nearly all actives have a fitted effect of over 35% in size; inactives centre near -10
Starred values were filed as active, the others as inactive. % is set by controls: 0 for no effect and ±100 for the full control effect; potency is the fitted concentration of half-maximal effect.

COCCCNC(=O)CC1C[C@H](C(=O)N2CCOCC2)[C@@]2(C)c3[nH]c4ccc(OC)cc4c3CCN2C1=O (stereo not given in full) was read as VACV Venus inh -11% and VACV mCherry inh inactive.
`O=C1CS/C(=N/N=C2C3CC4CC(C3)CC2C4)N1` gave VACV Venus inh -2% and VACV mCherry inh -13%.
Screening CCC(O)(Cc1ccccn1)Cc1ccccn1 returned VACV Venus inh -2% and VACV mCherry inh -11%.
CCOc1ccc(N=C(NN)c2ccc3ccccc3n2)cc1 was read as VACV Venus inh -16% and VACV mCherry inh -13%.
`Cc1cc2oc3c(c(=O)c2cc1C)C(c1ccc(C(C)C)cc1)N(c1nc(C)c(C)s1)C3=O` (stereo not given) gave VACV Venus inh -6% and VACV mCherry inh 3%.
For CC(=O)C1=C(c2ccc(C)c(C)c2)N(C(C)=O)n2c(nnc2-c2ccc(Cl)cc2)S1 the results were VACV Venus inh -7% and VACV mCherry inh -6%.
CCOC(=O)Cn1c(=O)oc2cc(S(=O)(=O)Nc3cccc(C)c3)ccc21 was read as VACV Venus inh -9% and VACV mCherry inh inactive.
`O=C(NCc1nnc(SCC(=O)N2CCCCC2)o1)c1c(F)cccc1F` gave VACV Venus inh -5% and VACV mCherry inh 0%.
For CCNC(=S)N1CCc2ccccc2C1 the results were VACV Venus inh -5% and VACV mCherry inh -12%.
COC(=O)c1cnc(Nc2nc(C(N)Cc3ccc(Cl)cc3)cs2)nc1C(F)(F)F (stereo not given) was read as VACV Venus inh -18% and VACV mCherry inh -25%.
Cc1ccc(S(=O)(=O)c2nc(-c3ccco3)oc2SCC(=O)Nc2ccc(F)cc2)cc1 was read as VACV Venus inh -8% and VACV mCherry inh -4%.
CC(NC(=O)c1ccccc1F)c1nnc(SCC(=O)Nc2nccs2)n1C (stereo not given) was read as VACV Venus inh 3% and VACV mCherry inh -5%.
Nc1ncnc2c1ncn2[C@@H]1O[C@H](CNS(=O)(=O)c2cc3ccccc3s2)[C@@H](O)[C@H]1O was read as VACV Venus inh -7% and VACV mCherry inh -19%.
Screening CC(=O)CC(=O)C1C(=O)N(C)C(=O)N(C)C1=O returned VACV Venus inh -10% and VACV mCherry inh -2%.
Screening CS(=O)(=O)N(CC(=O)N1CCCC1)c1ccc(Cl)c(Cl)c1 returned VACV Venus inh -12% and VACV mCherry inh inactive.
Screening CCCCCCCC(=O)NNC(=O)CCC(=O)O returned VACV Venus inh -9%.
For COc1cccc(/C=N/NC(=O)CCNc2n[nH]c(=O)[nH]c2=O)c1OC the results were VACV Venus inh 5% and VACV mCherry inh -18%.
Screening O=C(Nc1ccc(N2CCOCC2)c(Cl)c1)c1ccc(S(=O)(=O)N2CCOCC2)cc1 returned VACV Venus inh -24% and VACV mCherry inh -28%.
`CC(C)(Cc1c[nH]c2ccc(Cl)cc12)NCCOc1ccccc1OCC1CC1` gave VACV Venus inh inconclusive and VACV mCherry inh -26%.
Screening COc1ccc(NC(=O)CCC(=O)N2CCN(S(=O)(=O)c3ccc(C)cc3)CC2)c(OC)c1 returned VACV Venus inh -17% and VACV mCherry inh inconclusive.

Quoted from above for reference:
COCCCNC(=O)CC1C[C@H](C(=O)N2CCOCC2)[C@@]2(C)c3[nH]c4ccc(OC)cc4c3CCN2C1=O (stereo not given in full) was read as VACV Venus inh -11% and VACV mCherry inh inactive.
`O=C1CS/C(=N/N=C2C3CC4CC(C3)CC2C4)N1` gave VACV Venus inh -2% and VACV mCherry inh -13%.

3 structures out of the list, arranged by length of the SMILES, largest number first:
`Cc1cc2oc3c(c(=O)c2cc1C)C(c1ccc(C(C)C)cc1)N(c1nc(C)c(C)s1)C3=O` (stereo not given) gave VACV Venus inh -6% and VACV mCherry inh 3%.
For COc1cccc(/C=N/NC(=O)CCNc2n[nH]c(=O)[nH]c2=O)c1OC the results were VACV Venus inh 5% and VACV mCherry inh -18%.
Screening CC(=O)CC(=O)C1C(=O)N(C)C(=O)N(C)C1=O returned VACV Venus inh -10% and VACV mCherry inh -2%.

(list continues)
Screening C[C@H](CO)N1C[C@H](C)[C@@H](CN(C)C(=O)Nc2ccccc2)Oc2ccc(NC(=O)C3CCCCC3)cc2C1=O returned VACV Venus inh -4% and VACV mCherry inh -7%.
Screening COc1ccc(S(=O)(=O)N2CCNCC2)cc1OC returned VACV Venus inh 0% and VACV mCherry inh -16%.
CC(C)OCC1CO1 (stereo not given) was read as VACV Venus inh -7% and VACV mCherry inh -7%.
`CC(C)Cc1nnc(NC(=O)c2ccc([N+](=O)[O-])cc2)s1` gave VACV Venus inh inconclusive.
`COc1ccc(S(=O)(=O)Nc2noc3ccccc23)cc1` gave VACV Venus inh -7% and VACV mCherry inh inactive.
For COc1cc(OC)cc(C(=O)NCC(=O)OCC(=O)NCc2ccco2)c1 the results were VACV Venus inh -11% and VACV mCherry inh inactive.
For Cc1cccc(OC(C)C(=O)NCc2ccc(S(N)(=O)=O)cc2)c1 (stereo not given) the results were VACV Venus inh -11% and VACV mCherry inh -19%.
`O=S(=O)(c1ccc(NC(=S)NCCC(c2ccccc2)c2ccccc2)cc1)N1CCOCC1` gave VACV Venus inh 11µM* and VACV mCherry inh 10µM*.
Screening CC1(C)O[C@@H]2[C@H](O1)[C@@H](CO)O[C@H]2n1cc(Br)c(=O)[nH]c1=O returned VACV Venus inh -15% and VACV mCherry inh -2%.
Screening NC(N)=Nc1ccc2[nH]c3c(c2c1)C[C@@]1(O)[C@H]2Cc4ccc(O)c5c4[C@@]1(CCN2CC1CC1)[C@H]3O5 returned VACV Venus inh -5% and VACV mCherry inh -14%.
`Fc1cccc(-n2ncc3c2ncn2nc(Cc4ccccc4)nc32)c1` gave VACV Venus inh -10% and VACV mCherry inh -9%.
`CCOC(=O)Nc1ccc2c(c1)nc1n2CCN(CCOC)C1` gave VACV Venus inh -1% and VACV mCherry inh -14%.
`CC1([N+](=O)[O-])COP(=O)(Nc2ccc(Cl)cc2)OC1` (stereo not given) gave VACV Venus inh -23% and VACV mCherry inh -4%.
Screening Nc1cc(=O)[nH]c(SCC(=O)Nc2ncc(C(F)(F)F)cc2Cl)n1 returned VACV Venus inh 4% and VACV mCherry inh inactive.
CCOC(=O)c1sc(=S)n(C)c1NC(=O)c1ccccc1 was read as VACV Venus inh 0% and VACV mCherry inh -13%.
Screening CCc1ccc(N2C=C(C(=O)OC)C(c3ccccc3F)C(C#N)=C2N)cc1 (stereo not given) returned VACV Venus inh -27% and VACV mCherry inh inconclusive.
CN(N=O)c1ccc(/C=C/c2ccccc2)cc1 was read as VACV Venus inh -9% and VACV mCherry inh -10%.
C[C@H](CO)N1C[C@H](C)[C@@H](CN(C)Cc2ccc(Oc3ccccc3)cc2)OCc2cnnn2CCCC1=O was read as VACV Venus inh -19% and VACV mCherry inh -5%.
Screening Cc1ccc(CN(C)C(=O)c2cccc(S(=O)(=O)N3CCN(c4ccccc4)CC3)c2)cc1 returned VACV Venus inh -10% and VACV mCherry inh -28%.
`CC12CC3CC(C)(C1)CC(C(=O)NCc1cccnc1)(C3)C2` gave VACV Venus inh -5% and VACV mCherry inh -5%.
For O=C(NC1CCCCCC1)C1CCN(S(=O)(=O)N2CCC3(CC2)OCCO3)CC1 the results were VACV Venus inh -4% and VACV mCherry inh -7%.
For CC1(C)CC(=O)C2=C(C1)OC(N)=C(C#N)C2c1ccsc1 (stereo not given) the results were VACV Venus inh -8% and VACV mCherry inh -11%.
`COc1cc(NC(=O)c2cc(OC)c(OC)c(OC)c2)ccc1NC(=O)c1cccs1` gave VACV Venus inh -15% and VACV mCherry inh -11%.
For CCOCCCNC(=O)C(NC(=O)Cc1cccs1)c1ccccc1 (stereo not given) the results were VACV Venus inh 4% and VACV mCherry inh 0%.
`O=C(Nc1ccc(NC(=S)NC(=O)c2ccccc2F)cc1)c1cccs1` gave VACV Venus inh -10% and VACV mCherry inh inactive.
O=C(O)c1ccc(CNCc2ccc(Cl)cc2)s1 was read as VACV Venus inh 1% and VACV mCherry inh -16%.
For COc1ccc(Nc2cc(Nc3cccc(OC)c3)ncn2)cc1 the results were VACV Venus inh -17% and VACV mCherry inh -27%.
Clc1ccc2nc(-c3ccco3)c(Cc3ccsc3)n2c1 was read as VACV Venus inh -8% and VACV mCherry inh inactive.
CCCOC1CCCN(C(=O)c2ccc(OC3CCN(C(=O)COC)CC3)cc2)C1 (stereo not given) was read as VACV Venus inh -12% and VACV mCherry inh -5%.
Screening COc1cccc(/C=N/NC(=O)C(=O)NCc2cccnc2)c1O returned VACV Venus inh -18% and VACV mCherry inh -19%.
Screening O=C(Cn1cc(F)c(=O)[nH]c1=O)c1ccco1 returned VACV Venus inh -6% and VACV mCherry inh inactive.
`CCc1ccccc1NC(=O)C(C)n1nc([N+](=O)[O-])c(Br)c1C` (stereo not given) gave VACV Venus inh -22% and VACV mCherry inh -26%.
Screening COC(=O)Cc1c(C)c2ccc3c(c2oc1=O)CN(Cc1ccccc1OC)CO3 returned VACV Venus inh -9% and VACV mCherry inh -23%.
C/C(NCc1cccnc1)=C(\C#N)C(=O)NCc1ccccc1 was read as VACV Venus inh -5%.
`Cc1cccc(C(=O)NC(=S)Nc2ccccc2C(F)(F)F)c1` gave VACV Venus inh -9% and VACV mCherry inh -16%.
Screening COc1ccc(N(CC(=O)N/N=C(\C)c2ccc(C)cc2)S(=O)(=O)c2ccccc2)cc1 returned VACV Venus inh -6% and VACV mCherry inh -10%.
`O=C1NCCCc2c1no[n+]2[O-]` gave VACV Venus inh -9% and VACV mCherry inh -4%.
`CC(NC(=O)c1ccc2c(c1)N(Cc1ccc(Cl)cc1)C(=O)CS2)c1ccccc1` (stereo not given) gave VACV Venus inh 6% and VACV mCherry inh 2%.
`Cc1nnc(NC(=O)c2cccc(S(=O)(=O)N3CC(c4ccccc4)CC3=O)c2)s1` (stereo not given) gave VACV Venus inh -17% and VACV mCherry inh -17%.
For C=CCNC(=O)c1cc(-c2cccnc2)nc2ccccc12 the results were VACV Venus inh 0% and VACV mCherry inh inactive.

Of the compounds above, these contain a COOH group.
Screening CCCCCCCC(=O)NNC(=O)CCC(=O)O returned VACV Venus inh -9%.
O=C(O)c1ccc(CNCc2ccc(Cl)cc2)s1 was read as VACV Venus inh 1% and VACV mCherry inh -16%.

Structures from the list above that contain bromine, in the order listed:
Screening CC1(C)O[C@@H]2[C@H](O1)[C@@H](CO)O[C@H]2n1cc(Br)c(=O)[nH]c1=O returned VACV Venus inh -15% and VACV mCherry inh -2%.
`CCc1ccccc1NC(=O)C(C)n1nc([N+](=O)[O-])c(Br)c1C` (stereo not given) gave VACV Venus inh -22% and VACV mCherry inh -26%.

(continued)
`CC(Sc1nncn1C)C(=O)NCc1ccc2c(c1)OCO2` (stereo not given) gave VACV Venus inh 6% and VACV mCherry inh 1%.
Screening Cn1c(N)c(C(=O)COC(=O)Cc2ccc(F)cc2)c(=O)n(C)c1=O returned VACV Venus inh -3% and VACV mCherry inh -19%.
For O=C(NCc1ccc(F)cc1)c1ccc(Cl)c(NC2=NC3CS(=O)(=O)CC3S2)c1 (stereo not given) the results were VACV Venus inh -9% and VACV mCherry inh inactive.
Screening CCn1cc(CN2CCOc3ccc(C(O)C4CCCCC4)cc3C2)c(C)n1 (stereo not given) returned VACV Venus inh -7% and VACV mCherry inh -9%.
`O=[N+]([O-])c1ccc(C=NNC(=S)Nc2ccc(F)cc2)cc1` gave VACV Venus inh -5% and VACV mCherry inh inconclusive.
CCOC(=O)[C@]12CCC=C1N(Cc1ccco1)C(=O)[C@H](CC(=O)N1CCN(C(=O)C3CC3)CC1)C2 was read as VACV Venus inh 3% and VACV mCherry inh -3%.
For C[C@@H]1CN([C@@H](C)CO)S(=O)(=O)c2ccc(C#CC(C)(C)O)cc2O[C@H]1CN(C)C(=O)C1CCCCC1 the results were VACV Venus inh -19% and VACV mCherry inh -14%.
For CC1=NN(c2ccccc2)C(=O)C1N=Nc1ccccc1 (stereo not given) the results were VACV Venus inh 6% and VACV mCherry inh -7%.
O=C(Cn1c(COc2ccccc2)nc2ccccc21)Nc1cc(Cl)ccc1Cl was read as VACV Venus inh -21% and VACV mCherry inh -20%.
Screening CC(=NCCC1=CCCCC1)c1c(O)n(-c2ccccc2)c(=O)[nH]c1=O returned VACV Venus inh -12% and VACV mCherry inh -21%.
Screening COc1ccc(-c2cc(C(=O)OCC(=O)N3CCCC3)c3ccccc3n2)cc1 returned VACV Venus inh -29% and VACV mCherry inh -4%.
For NC(=O)c1cc(C(=O)c2ccccc2Cl)c[nH]1 the results were VACV Venus inh -6% and VACV mCherry inh -7%.
CCc1nc2ccc(C(=O)N3CCCC(C(N)=O)C3)cn2c1N(C)Cc1ccc(OC)cc1 (stereo not given) was read as VACV Venus inh 6% and VACV mCherry inh 17%.
`CC1=CC=CN2CC(O)CN=C12` (stereo not given) gave VACV Venus inh -4% and VACV mCherry inh -17%.
`CC(C)CC(=O)Nc1ccc(N2CCOCC2)cc1` gave VACV Venus inh -3% and VACV mCherry inh -8%.
Screening CCOP(=O)(OCC)C(O)c1ccc(OC)c(OC)c1 (stereo not given) returned VACV Venus inh -2%.
Screening C=CCc1cc(C=O)cc(OCC)c1O returned VACV Venus inh -1% and VACV mCherry inh -2%.
c1ccc(-c2nc(-n3nc4ccccc4n3)nc3ccccc23)cc1 was read as VACV Venus inh -16%.
`O=C(CO/N=C/c1ccc(OC(F)F)cc1)NC1CCCC1` gave VACV Venus inh -15% and VACV mCherry inh inactive.
`CC(=O)Nc1ccccc1C(=O)C(=O)Nc1ccc(C)c(F)c1` gave VACV Venus inh -9% and VACV mCherry inh -11%.
Cc1ccc(NC(=O)CCCN2C(=O)c3cccc4cccc(c34)C2=O)cc1 was read as VACV Venus inh -8% and VACV mCherry inh inactive.
